D2 PAM: positive allosteric modulators of human D2 dopamine receptor | P14416 | DiscoveRx D2 beta-arrestin cells, luminescence, 90 min; 100% = 57 uM dopamine signal | potentiation, % (concentration not given with the values) | 360,000 tested, 0.23% active; active = potentiation of 50% or more; inconclusive = 30% to 50%; inactive = 30% or less;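 note: compound concentration not given in the record; tested on top of an EC20 dose of dopamine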
Target sequence (P14416 whole entry, looked up): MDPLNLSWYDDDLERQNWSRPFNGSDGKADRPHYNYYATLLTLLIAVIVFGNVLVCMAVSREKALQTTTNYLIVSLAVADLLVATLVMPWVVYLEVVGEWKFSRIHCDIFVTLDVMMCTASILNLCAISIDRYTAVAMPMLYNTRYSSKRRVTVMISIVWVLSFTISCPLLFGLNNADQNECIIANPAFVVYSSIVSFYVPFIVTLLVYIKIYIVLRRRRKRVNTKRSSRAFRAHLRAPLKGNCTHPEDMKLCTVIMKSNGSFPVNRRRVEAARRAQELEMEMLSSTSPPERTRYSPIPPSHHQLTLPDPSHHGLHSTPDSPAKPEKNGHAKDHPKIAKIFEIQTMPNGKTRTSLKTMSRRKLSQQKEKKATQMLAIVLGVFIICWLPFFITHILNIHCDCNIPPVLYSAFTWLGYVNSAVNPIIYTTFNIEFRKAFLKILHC
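PathHunter beta-arrestin assay in DiscoveRx D2 cells. Compounds were added with an EC20 of dopamine (50 nM final) for 90 min at 37 deg C. Luminescence was read 1 h after detection reagent, with 57 uM dopamine as the EC100 control.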
TRPML1 ag: human mucolipin-1 channel agonism; Q9GZU1; 410,000 tested, 0.12% active; TRPML1-expressing cells, Ca2+ dye fluorescence, FDSS; host cell line not named in the record; reference of the full effect not given here; AID 624414; activation, % (no concentration beside the values); in the data active = activation above about 50%; inconclusive = about 30% to 50%; inactive = below about 30%; note: 0% is about no effect; the text of the record puts the active cut at 80%
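In this qHTS format, compounds were pin-transferred onto Ca8-dye-loaded TRPML1-DL cells induced with Tet overnight, and intracellular Ca2+ fluorescence was recorded kinetically for 110 s after a 10 s baseline. A subsequent 4uM final 54-4 (EC80) addition followed by a second 110 s read served as the antagonist phase.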
D2 agonist: human D2 receptor agonism in beta-arrestin assay; DiscoveRx PathHunter D2 beta-arrestin, luminescence, 90 min; 100% = 57 uM dopamine signal; activation, % (concentration not given with the values); 360,000 tested, 0.084% active; AID 624465; in the data active = activation above about 40%; inconclusive = about 15% to 40%; inactive = below about 15%; note: compound concentration not given in the record; the text of the record calls up to 30% inactive
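Agonist mode: compounds alone added to overnight-plated D2 PathHunter cells for 90 min at 37 C, with 57 uM final dopamine (EC100) defining full response. Beta-arrestin recruitment detected by chemiluminescent reagent, read after 1 h at ambient temperature.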
TRPML1 blocker: blocks the human TRPML1 channel; Q9GZU1; TRPML1-inducible cells, Ca2+ dye fluorescence, FDSS; active compounds read low; inhibition of EC80 agonist-evoked calcium signal; activity change, negative = inhibition, % (no concentration beside the values); 390,000 tested, 0.02% active; AID 624415; in the data active means activity change below about -50%; inconclusive means about -30% to -50%; inactive means above about -30%;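 note: stimulus is agonist 54-4 at its EC80 concentration; % is set by controls: 0 for no effect and ±100 for the full control effect; compound concentration not given in the record; the text of the record puts the active cut at -80%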
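Tet-induced TRPML1-DL cells loaded with Ca8 no-wash calcium dye were read kinetically on FDSS. Compound addition was followed by EC80 agonist 54-4 (4 uM final); inhibition was read over 110 s.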
PINK1 expr mod: modulators of PINK1 expression | PINK1 immunofluorescence, high-content cytometry, 24 h | AID 624263 | 410,000 tested, 0.2% active | Potency, µM (doses to about 76.6 µM), without a hit: at the top dose activation (PINK1 increase), hits mostly activators; active = well fitted activation curve with a large enough effect; inconclusive = small, poorly fitted or top-dose-only effect; inactive = flat fitted curve, though single readings scatter; cell line not stated here;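 note: potency is the fitted concentration of half-maximal effect; % of control where 0% means no effect; nearly all actives have a fitted effect of over 65% in size; a mitochondrial uncoupler was the plate control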
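Fluorescence from anti-PINK1 antibody, together with nuclear and cell stains, was scanned on a laser-scanning cytometer. Before staining, stable-line cells were incubated 24 hours with compounds at 5 concentrations; primary antibody 12 h at 10 degrees C.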
Six1-Eya2 inh: inhibitors of human Six1/Eya2 interaction | 360,000 tested, 0.56% active | AlphaScreen GST-Six1/His-Eya2 binding, biochemical; active compounds read low; control for the full effect not named in the record | activity change, % (no concentration beside the values) | Q15475+O00167; in the data active = activity change below about -65%; inconclusive = about -30% to -65%; inactive = above about -30%; note: % is set by controls: 0 for no effect and ±100 for the full control effect
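Compounds are tested against tagged Six1 and Eya2 proteins bridged by glutathione donor and nickel acceptor beads; after a one-hour incubation at 37 °C without light, AlphaScreen emission is recorded.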
Numbers without * were called inactive; ? = inconclusive; / = no result given; [ ] = another dose, or the depositor's remark.

Results follow in this order: PINK1 expr mod | D2 PAM | D2 agonist | TRPML1 ag | TRPML1 blocker | Six1-Eya2 inh
Cc1ccc(C)c(OC(=O)c2cccnc2Cl)c1C
  -0.7% | -9 | -3.8 | -0.5 | 0 | 10
COc1ccc(/C=C/C(=O)NC(=S)N2CCN(c3ccccc3OC)CC2)cc1
  2.3% | -4 | -1.0 | 2.4 | 35 | -6
CC1CCN(C(=O)CSc2nnc(-c3ccncc3)n2C)CC1
  0.9% | -3 | 0.0 | -0.2 | -4 | 2
COc1ccccc1NC(=O)CSc1nnc(CSc2nc(C)cc(C)n2)o1
  -1.2% | -1 | 3.7 | -0.9 | 5 | 0
C=C(C)Cn1c(-c2ccccc2)nc2ccccc21
  1.8% | -20 | -3.7 | 2.3 | -12 | 0
O=C(CN1CCN(c2ccc(F)cc2)CC1)NC(=O)NCc1ccco1
  -0.1% | -20 | -1.0 | -0.2 | -8 | 6
CC(C)C[C@@H]1COc2cc(N3CC[C@H](O)C3)ccc2S(=O)(=O)N1
  0.0% | / | / | -0.1 | / | 17
COCCN(C(=O)c1csnn1)C(C(=O)NC1CCCC1)c1ccccc1 (configuration not stated)
  1.7% | -5 | -1.2 | -0.3 | 14 | 3
Cc1ccc(S(=O)(=O)N2C[C@H]3C(=O)C[C@@H](c4ccc(Cl)cc4)N(S(=O)(=O)c4ccccc4C)[C@H]3C[C@H]2c2ccc(Cl)cc2)cc1
  1.8% | -2 | -9.1 | 0.2 | 19 | 0
O=C1NC[C@@H](CCCCN2C[C@H](Cc3ccc(O)cc3)N(CCC3CCCCC3)C(=O)C2=O)N(CCC2CCCCC2)C1=O
  8.7% | / | / | -0.4 | / | -7

An excerpt from above in order of number of heavy atoms, descending.
Results follow in this order: PINK1 expr mod | D2 PAM | D2 agonist | TRPML1 ag | TRPML1 blocker | Six1-Eya2 inh
Cc1ccc(S(=O)(=O)N2C[C@H]3C(=O)C[C@@H](c4ccc(Cl)cc4)N(S(=O)(=O)c4ccccc4C)[C@H]3C[C@H]2c2ccc(Cl)cc2)cc1
  1.8% | -2 | -9.1 | 0.2 | 19 | 0
O=C1NC[C@@H](CCCCN2C[C@H](Cc3ccc(O)cc3)N(CCC3CCCCC3)C(=O)C2=O)N(CCC2CCCCC2)C1=O
  8.7% | / | / | -0.4 | / | -7
CC(C)C[C@@H]1COc2cc(N3CC[C@H](O)C3)ccc2S(=O)(=O)N1
  0.0% | / | / | -0.1 | / | 17

Following part
Results follow in this order: PINK1 expr mod | D2 PAM | D2 agonist | TRPML1 ag | TRPML1 blocker | Six1-Eya2 inh
CCc1ccc(C2C(C#N)=C(N)SC(N)=C2C#N)cc1
  0.6%[38.3 µM] | -14 | -2.5 | 2.1 | 0 | -5
CCN(CC)S(=O)(=O)c1ccc(N2CCCC2)c(NC(=O)c2ccccc2OC)c1
  -2.1% | -3 | -0.6 | 2.3 | -6 | -3
O=C(CSc1nnc(NC(=O)c2ccccc2F)s1)NC1CCCC1
  2.2% | -1 | -2.8 | 0.6 | -11 | -2
CCN(CC)S(=O)(=O)c1ccc(N2CCOCC2)c(NC(=O)C(C)Oc2ccc(F)cc2)c1 (configuration not stated)
  2.2% | 4 | 0.6 | 1.1 | -5 | -1
CCOP(=O)(OCC)C(NC(=O)Nc1ccc(C)c(Cl)c1)c1ccccc1 (configuration not stated)
  2.8% | -8 | -8.7 | 0.8 | -22 | 10
NC1(C#Cc2ccc3c(=O)c4ccccc4sc3c2)CCCCC1
  -0.4% | -1 | 1.2 | -0.6 | 1 | -7
Nc1ccc2c(c1)C(=O)c1ccc(Br)cc1-2
  -0.8% | -5 | 0.3 | 1.1 | 17 | ?
O=C(NCCN1CCOCC1)c1ccccc1N1C(=O)[C@@H]2Cc3c([nH]c4ccccc34)C(c3ccc(F)cc3)N2C1=O (some centres not stated)
  1.7% | -70 | -11 | / | / | -3
Cn1nccc1C(=O)N1CCN(c2cccc(Cl)c2)CC1
  0.9% | -10 | 0.1 | -0.2 | -11 | 0
CCOC(=O)c1sc(N)nc1C(C)(C)C
  0.0% | 0 | -1.7 | -0.2 | 75 | -3
CCC1(CC)Cc2ccccc2C(Nc2c(C)n(C)n(-c3ccccc3)c2=O)=N1
  0.3% | 8 | -1.3 | -0.4 | -12 | 1
N#Cc1cccc(NC(=O)CNc2cccc(S(=O)(=O)N3CCCCC3)c2)c1
  3.9% | 11 | -1.0 | -0.8 | -6 | -4
Cn1nc(C(=O)NNC(=O)C2CSC3(C)CCC(=O)N23)c2ccccc2c1=O (configuration not stated)
  0.3% | 0 | -3.1 | -0.3 | 13 | -2
N#CCC(CNc1ncc(C(F)(F)F)cc1Cl)OC(=O)c1ccc(Cl)cc1Cl (configuration not stated)
  4.4%[38.3 µM] | -6 | 1.4 | -0.3 | 9 | 15
Cc1nn(-c2ccccc2)c2c1N(CC(=O)N1CCN(c3cccc(Cl)c3)CC1)C(=O)CS2
  -0.4% | / | / | -1.0 | -9 | /
COc1ccc(N2CN=C3SCC(=O)N3C2)cc1
  -1.3% | -1 | -2.6 | -0.8 | -7 | -2
Cc1ccsc1/C=N/NC(=O)CNC(=O)c1ccccc1
  -1.4% | -12 | -7.6 | -1.1 | 13 | 2
COc1ccc(-c2cc3c(=O)n(CC(=O)NCCCN4CCC(N5CCCCC5)CC4)nc(C)n3n2)cc1
  0.5% | -20 | -1.8 | 0.1 | -11 | -2
Cc1ccc(-c2csc(NC(=O)c3ccc(Br)cc3)c2C(=O)O)cc1
  0.1% | -3 | -3.3 | 3.0 | 44 | -5
COc1ccc(NC(=O)c2nnn(CC(=O)Nc3ccc4c(c3)OCO4)c2N)cc1OC
  6.5% | -17 | -0.6 | -0.9 | 20 | -7
O=C(Nc1ccc(S(=O)(=O)N2CCCCCC2)cc1)c1cc(=O)c2ccccc2o1
  1.6% | / | / | -1.2 | -2 | /
COc1cc(CN(C(=O)c2ccco2)C2CCS(=O)(=O)C2)cc(OC)c1OC (configuration not stated)
  0.6% | 2 | 0.6 | -0.7 | -14 | 3

Filtered by structure: the entries above containing an aryl methoxy group (7)
Results follow in this order: PINK1 expr mod | D2 PAM | D2 agonist | TRPML1 ag | TRPML1 blocker | Six1-Eya2 inh
COc1ccc(/C=C/C(=O)NC(=S)N2CCN(c3ccccc3OC)CC2)cc1
  2.3% | -4 | -1.0 | 2.4 | 35 | -6
COc1ccccc1NC(=O)CSc1nnc(CSc2nc(C)cc(C)n2)o1
  -1.2% | -1 | 3.7 | -0.9 | 5 | 0
CCN(CC)S(=O)(=O)c1ccc(N2CCCC2)c(NC(=O)c2ccccc2OC)c1
  -2.1% | -3 | -0.6 | 2.3 | -6 | -3
COc1ccc(N2CN=C3SCC(=O)N3C2)cc1
  -1.3% | -1 | -2.6 | -0.8 | -7 | -2
COc1ccc(-c2cc3c(=O)n(CC(=O)NCCCN4CCC(N5CCCCC5)CC4)nc(C)n3n2)cc1
  0.5% | -20 | -1.8 | 0.1 | -11 | -2
COc1ccc(NC(=O)c2nnn(CC(=O)Nc3ccc4c(c3)OCO4)c2N)cc1OC
  6.5% | -17 | -0.6 | -0.9 | 20 | -7
COc1cc(CN(C(=O)c2ccco2)C2CCS(=O)(=O)C2)cc(OC)c1OC (configuration not stated)
  0.6% | 2 | 0.6 | -0.7 | -14 | 3

Bioassay records (PubChem)

Rows are unselected; overall some 1% were active at least once.
